HNF4A DNA FP = change in binding of human HNF4A to DNA, primary screen, biochemical, fluorescence polarization, FITC-DNA; 360,000 tested, 0.3% active; Hepatocyte nuclear factor 4-alpha (Homo sapiens), P41235; activity change, % at 10 µM; 1 h; in the data active means activity change above about 30%, passing the limit was not always enough;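 further: controls were the assay level and a saturating level of protein; the project sought stronger binding though the title names inhibitors; some compounds called inactive have numbers as strong as hits; positive values seem to mean higher polarization but the record does not say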
rRNA inh HTS = reduced GFP signal of wild-type E. coli, primary screen, bacterial rRNA inhibitor project, GFP/RFP fluorescence, OD600, single point. 350,000 tested, 1.6% active. E. coli WT GFP vs humanized-ribosome RFP mutants, 24 h; hits give low values; DMSO median 0, no signal -100. GFP signal change (wild-type ribosome), % (no concentration beside the values);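 active means significant combined selectivity score with lowered wild-type GFP, culture density cut under 30%, mutant RFP and density less affected; inactive means any of these conditions unmet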; further: one replicate is shown; some compounds called inactive have numbers as strong as hits
ALR inh = inhibitors of human ALR sulfhydryl oxidase, primary screen, biochemical, H2O2 detection, HRP-luminol luminescence, single point; purified ALR, DTT oxidation; inhibition, % (test concentration not listed); 290,000 tested, 3.8% active; AID 485317, 2010;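 active means mean and each replicate at 75% or more; inconclusive means only one of the two met; inactive means neither met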;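 further: stock transfer was 7.5 nL into about 7.5 µL; 0% = neutral wells and 100% = wells with inactivated enzyme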
Target sequence (P55789 whole entry, looked up): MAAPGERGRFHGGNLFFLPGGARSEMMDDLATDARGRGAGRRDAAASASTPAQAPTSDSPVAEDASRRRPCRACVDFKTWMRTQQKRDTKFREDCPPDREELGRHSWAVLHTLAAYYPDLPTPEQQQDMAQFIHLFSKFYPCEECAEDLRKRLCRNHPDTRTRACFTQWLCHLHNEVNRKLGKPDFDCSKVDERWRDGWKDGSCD
MLL AF4-AF9 inh = inhibitors of AF4 peptide binding to AF9, primary screen, biochemical, AlphaScreen, biotin-AF4 peptide, FLAG-AF9, single point; inhibition, % at 10 µM; 350,000 tested, 0.47% active;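 active means every replicate reaching a set inhibition limit, whatever the replicate mean, cut at about 25% in these data; inconclusive means mean inhibition reaches that limit but some replicates miss it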;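 further: 0% = plate neutral control median and 100% = total signal loss; the record names both 10 and 1 µM as test concentration; the first replicate is given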
Target sequence (P42568 whole entry, looked up): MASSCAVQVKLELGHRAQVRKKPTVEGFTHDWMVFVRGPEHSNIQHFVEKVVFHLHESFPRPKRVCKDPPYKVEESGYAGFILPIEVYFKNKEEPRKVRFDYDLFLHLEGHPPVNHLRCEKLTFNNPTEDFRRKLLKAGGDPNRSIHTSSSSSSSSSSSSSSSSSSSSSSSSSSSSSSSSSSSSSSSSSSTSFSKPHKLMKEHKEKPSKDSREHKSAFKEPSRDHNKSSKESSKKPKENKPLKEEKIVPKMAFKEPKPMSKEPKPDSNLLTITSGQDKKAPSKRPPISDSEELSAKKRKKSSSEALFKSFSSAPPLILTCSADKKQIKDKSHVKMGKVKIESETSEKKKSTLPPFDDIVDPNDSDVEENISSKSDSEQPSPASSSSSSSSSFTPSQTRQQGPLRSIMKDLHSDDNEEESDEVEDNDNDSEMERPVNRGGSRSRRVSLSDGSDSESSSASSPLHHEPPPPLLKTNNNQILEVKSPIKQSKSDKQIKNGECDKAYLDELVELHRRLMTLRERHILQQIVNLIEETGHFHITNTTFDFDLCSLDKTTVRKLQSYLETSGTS
FGF22 binding = binders of human FGF22 protein, primary screen, FGF22 synaptogenesis inhibitor project, biophysical, thermal shift, single point. Fibroblast growth factor 22 (Homo sapiens), Q9HCT0. recombinant FGF22 thermal shift, SYPRO orange fluorescence; percent of sucrose octasulfate shift, DMSO zero. calls only at 9.99 µM. 340,000 tested, 1.5% active. AID 651658, 2012;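 active means melting point raised past a set limit in the mean and every replicate; inconclusive means no clear call; three in four hits are not shown here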
Target sequence (Q9HCT0 whole entry, looked up): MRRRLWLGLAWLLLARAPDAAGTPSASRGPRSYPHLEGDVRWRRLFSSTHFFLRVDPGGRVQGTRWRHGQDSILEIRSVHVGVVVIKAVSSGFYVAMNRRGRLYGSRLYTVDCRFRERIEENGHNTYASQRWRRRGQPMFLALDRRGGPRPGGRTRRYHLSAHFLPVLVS
Ecoli growth = E. coli growth inhibition, primary screen, OD600; Escherichia coli growth, 23 h; hits give low values; OD600 absorbance (test concentration not listed); AID 1053175, 2014; 330,000 tested, 0.21% active;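 active means OD600 absorbance below the run mean of sample wells minus 3.6 SD, in any replicate, cut at about 0.56 in these data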;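 further: stock transfer was 300 nL into about 60 µL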
Vif TR-FRET = inhibitors of Vif binding to APOBEC3G peptide, primary screen, biochemical, TR-FRET, GST-Vif 1-94, biotin-A3G peptide, dose response retest (AID 1117319). Virion infectivity factor (Human immunodeficiency virus type 1 group M subtype B (isolate …. TR-FRET GST-Vif / biotin-A3G peptide binding; higher % means a stronger effect; test concentration not given here; strong numbers were not always called active. inhibition, %, or IC50 in µM where a hit was titrated. 260,000 tested, 0.57% active;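 active means above the screen mean plus three standard deviations and confirmed in dose response; inconclusive means results disagree or hit not tested in dose response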;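 further: Vif residues 1-94 fused to GST binding biotinylated APOBEC3G peptide 110-148; 0% = full assay without inhibitor and 100% = GST in place of GST-Vif; retest series ran down from 100 µM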
rRNA inh HTS OD600 = second read-out of rRNA inh HTS, no call of its own (marks repeat the call); OD600 change, %; measured here: OD600 growth;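 optical density of the mix in the first replicate; 0 = DMSO median and -100 = no signal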
rRNA inh HTS RFP = also measured in rRNA inh HTS; calls as there; RFP signal change, %; measured here: RFP humanized mutant strains;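 first replicate; 0 = DMSO median and -100 = no signal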
The depositor's hits bear a star; i = inactive; ? = inconclusive; nt = no result given; & = joins results of further samples.

SMILES	HNF4A DNA FP	rRNA inh HTS	rRNA inh HTS OD600	rRNA inh HTS RFP	ALR inh	MLL AF4-AF9 inh	FGF22 binding	Ecoli growth	Vif TR-FRET
CCOC(=O)c1ccc(N2C(=O)CC(N3CCN(C(=O)c4ccco4)CC3)C2=O)cc1 (centres undefined)	3.8	nt	nt	nt	-13	nt	nt	0.73	30%
COc1ccc(OC)c(S(=O)(=O)n2nc(C)cc2C)c1	6.1	nt	nt	nt	-14	nt	nt	0.71	1%
N/C(=N\S(=O)(=O)c1ccc(Cl)cc1)N1CCOCC1	4.3	14	14	0.6	nt	-1.9	i	0.65	?
CCCCN1CCCCC1(C)C(=O)NCc1ccc2c(c1)OCO2 (centres undefined)	-1.5	3	4	0.5	nt	-5.0	i	nt	nt
Cc1cc(NC(=O)c2cc(-c3ccccc3Cl)nc3ccccc23)no1	-1.4	-8	-11	-1.0	-2	-2.7	i	0.62	nt
CC(C)C(NC(=O)c1ccccc1)C(=O)NCC(c1ccccc1)N(C)C (centres undefined)	3.2	-5	5	-3.9	-1	0.6	i	0.68	-1%
COc1ccc(Cn2c(=O)[nH]c3cc(C(=O)Nc4ccccc4C)ccc32)cc1	-2.1	15	14	0.4	-14	-2.7	i	0.68	-18%
Cc1ccc(N2CCN(/N=C/c3ccccc3)CC2)cc1	4.1	nt	nt	nt	-4	7.4	i	nt	0%
CNC(=S)Nc1cccc(C(C)=O)c1	-2.6	-3	-1	-3.1	-2	0.5	i	0.72	-7%
Cn1c2c(c3ccccc31)CCN=C2c1ccccc1	-0.2	-5	0	-5.0	14	10	i	0.63	nt
O=C(Oc1ccc2c(=O)c(Cl)coc2c1)c1cccnc1	1.1	nt	nt	nt	55	nt	nt	0.65	0%
O=C(O)[C@H]1CC=C[C@H]2CCN(Cc3ccc(Cl)c(Cl)c3)C(=O)[C@@H]12	-0.8	-32	-47	-11	nt	-15	i	0.68	3%

Gathered by group, the compounds so far with an aryl methoxy group
SMILES	HNF4A DNA FP	rRNA inh HTS	rRNA inh HTS OD600	rRNA inh HTS RFP	ALR inh	MLL AF4-AF9 inh	FGF22 binding	Ecoli growth	Vif TR-FRET
COc1ccc(OC)c(S(=O)(=O)n2nc(C)cc2C)c1	6.1	nt	nt	nt	-14	nt	nt	0.71	1%
COc1ccc(Cn2c(=O)[nH]c3cc(C(=O)Nc4ccccc4C)ccc32)cc1	-2.1	15	14	0.4	-14	-2.7	i	0.68	-18%

The results go on.
SMILES	HNF4A DNA FP	rRNA inh HTS	rRNA inh HTS OD600	rRNA inh HTS RFP	ALR inh	MLL AF4-AF9 inh	FGF22 binding	Ecoli growth	Vif TR-FRET
C/C=C/c1ccc([C@H]2[C@@H](CO)N3CCCCN(C(=O)Nc4ccc(OC)cc4)C[C@@H]23)cc1	nt	3	-15	6.1	nt	7.5	i	nt	nt
CCOc1ccc(N2C(=O)CS/C2=N/NC(=O)COc2ccc3ccccc3c2)cc1	-4.9	-5	-11	-1.1	-3	-25	nt	nt	7%
CC1(C2CCC3C4CCC5CC6(CCC5(C)C4C(=O)CC32C)OCCO6)OCCO1 (centres undefined)	-1.4	-14	-52	-10	nt	0.1	i	0.67	12%
C[C@@H]1CN([C@@H](C)CO)C(=O)c2cc(C#Cc3cccc(F)c3)cnc2O[C@@H]1CN(C)CC1CCOCC1	-0.4	0&1	-4&-5	3.3&3.2	nt	5.5&4.2	i	nt	5%
O=C(Nc1ccc(-c2csc(Nc3cccc(C(F)(F)F)c3)n2)cc1)c1ccccc1	2.3	1	10	0.8	-4	0.8	i	nt	nt
O=C1NC(=O)C(=Cc2ccco2)S1	-1.7	19	5	9.1	nt	-7.6	i	0.62	-2%
CCCN(CC(=O)Nc1ccccc1C)C(=O)/C=C/c1ccc(S(=O)(=O)N2CCCCCC2)cc1	1.5	-5	-11	1.1	5	2.6	nt	0.68	1%
CCOC(=O)N1CCN(S(=O)(=O)c2ccc(C)c(C(=O)NC3CCCCC3)c2)CC1	5.7	11	10	2.8	-1	-2.0	i	0.73	6%
O=C1NC[C@@H](c2ccccc2)OC(=O)[C@@H](Cc2ccc(F)cc2)CC/C=C/C[C@H]1CC(=O)N(CCO)Cc1ccccc1	6.6	-6	-11	7.5	-2	1.5	i	nt	nt
O=C(CC1CC1)Nc1ccc2c(c1)[C@@H]1C[C@H](CC(=O)N3CCc4ccccc4C3)O[C@@H](CO)[C@@H]1O2	nt	-6	-16	0.4	nt	1.7	i	nt	nt
O=C(CSc1n[nH]c(-c2cccs2)n1)N1CCCc2ccccc21	0.5	nt	nt	nt	-2	nt	nt	0.66	1%
CCC(C)c1ccc(OCC(=O)O)cc1 (centres undefined)	1.3	nt	nt	nt	nt	nt	nt	0.72	-3%
CN1N=C2c3ccccc3CCC2C1c1ccc(F)cc1 (centres undefined)	-0.5	-16*	5.5*	-3.6*	-13	-0.1	i	0.69	19%
CC(C)NC(=O)NC(=O)COC(=O)c1cccc(OC(F)F)c1	-0.3	1	-2	0.1	0	-1.8	i	0.65	0%
Cc1cc(OCC(=O)NC(Cc2ccc(Cl)cc2)C(=O)O)c2c(C)c(C)c(=O)oc2c1 (centres undefined)	-2.2	nt	nt	nt	-10	1.4	i	0.71	nt
COc1ccc(CCNC(=O)Nc2cccc([N+](=O)[O-])c2)cc1	1.6	-7	-8	-2.4	nt	-0.9	i	0.68	13%
COc1ccc(-c2nnn(CC(=O)N(C3CCCC3)C(C)C(=O)NC3CCCC3)n2)cc1OC (centres undefined)	-0.2	nt	nt	nt	nt	nt	nt	0.74	?
COc1ccc(OC2CCN(S(=O)(=O)c3ccc(OC)c(OC)c3)CC2)cc1	-4.7	-6	-22	6.6	-6	6.3	i	0.65	-2%
COc1ccc(NC(=O)N2CCc3ccccc32)cc1	1.7	nt	nt	nt	-27	nt	nt	0.73	4%
COc1ccc(NC(=O)Cc2ccc(Cl)cc2)cc1S(=O)(=O)N1CCCCC1	3.4	-31	-29	-2.9	nt	1.4	i	0.65	nt
COc1cc2cc(CCO)oc(=O)c2cc1OC	-2.6	-9	-6	-1.2	4	-5.3	i	0.68	nt
COc1cc2c(cc1OC)CN(Cc1cc(=O)oc3cc(C)c(C)cc13)CC2	2.2	nt	nt	nt	-8	nt	nt	0.67	-9%
Cn1c(=O)[nH]c(=O)c2c1nc(NCc1ccco1)n2CCCc1ccccc1	0.0	nt	nt	nt	nt	-2.6	nt	0.7	-4%
C[C@@H](NC(=O)C[C@H]1C[C@@H]2c3cc(NC(=O)NC4CCCC4)ccc3O[C@@H]2[C@@H](CO)O1)c1ccccc1	nt	-7	-18	2.2	nt	1.9	i	nt	nt
COc1ccc(CC(=O)N2CCN(c3ccccc3OC)CC2)cc1OC	0.6	0	-5	-4.8	29	-2.2	i	0.62	nt
O=C1CC(NS(=O)(=O)c2cccnc2)CN1c1cccc(F)c1 (centres undefined)	0.9	7	6	0.6	-1	-5.8	i	0.64	1%
CCOc1cccc2sc(N(CCN(C)C)C(=O)/C=C/c3cccs3)nc12	-0.1	nt	nt	nt	-1	nt	nt	0.59	-10%
COc1cc(C(=O)NCC(c2ccccc2)N(C)C)ccc1OCC(=O)N1CCOCC1 (centres undefined)	-2.6	20	16	0.8	-11	0.5	i	0.67	nt
Clc1ccc(-c2nc3ncccn3c2Cl)cc1	8.7	nt	nt	nt	nt	nt	nt	0.68	-7%
NCCCC[C@H]1CNC(=S)N1CCc1cccc(F)c1	-4.7	1	9	-2.1	-5	nt	i	nt	1%
Cc1ccc(C(=O)Nc2ccc3c(c2)CCC3)cc1	3.8	-7	-8	-3.6	35	-4.0	i	0.67	1%
O=C(NCCNC1CCC(c2ccccc2)CC1)c1cccs1 (centres undefined)	-0.1	-3	3	1.2	-3	-0.5	i	0.65	13%
C=CC[C@H](CC(=O)OC(C)(C)C)C(=O)OC[C@@H]1CCCN1C(=O)[C@@H](CC=C)CC(=O)NCCO	2.0	9	14	0.7	-8	-3.5	i	nt	nt
CO[C@@H]1CN(C)C(=O)c2ccc(NC(=O)C3CCOCC3)cc2OC[C@@H](C)N(Cc2nccs2)C[C@H]1C	nt	6	0	1.2	nt	1.3	i	nt	nt
COc1ccc(N(C)S(=O)(=O)c2cccc3nsnc23)cc1	0.9	-3	-10	-3.3	-3	5.0	i	0.67	-7%
COc1cc([C@H]2[C@@H]3CCCC[C@]3(O)CCN2CC(=O)Nc2ccc(C)cc2C)ccc1O	2.6	nt	nt	nt	9	nt	nt	0.67	-4%
CN(C)c1ccc(C(C(=O)NCC2CCCO2)N(C(=O)c2snc(C(N)=O)c2N)c2ccc3c(c2)OCO3)cc1 (centres undefined)	-1.6	22	11	3.3	7	9.3	i	nt	nt
Cn1cc([N+](=O)[O-])c(C(=O)N/N=C/c2cc3c(cc2Br)OCO3)n1	-0.8	7	13	1.6	-8	-3.4	i	nt	3%
C[C@H]1CN([C@@H](C)CO)C(=O)c2cc(C#Cc3ccccc3F)cnc2O[C@@H]1CN(C)C(=O)C1CCCCC1	nt	-3	4	6.5	nt	2.8	i	nt	nt
Cc1nn(C)cc1C(=O)Nc1ccccc1Br	0.7	2	7	-7.2	-1	2.7	i	0.65	10%
COc1ccccc1CNC(=O)C[C@H]1CC[C@@H]2[C@H](COC[C@H](O)CN2Cc2ccccc2)O1	nt	-3	-7	-0.4	nt	-1.7	i	nt	nt
Cc1ccc(C(=O)Nn2cnc3ccccc3c2=O)cc1C	-0.8	-2	-7	0.8	-7	3.2	i	0.68	-3%
Cc1ccc(NC(=O)CSc2ncn[nH]2)c([N+](=O)[O-])c1	1.5	nt	nt	nt	nt	0.1	i	0.64	-4%
CC1CCCC(C)N1C(=O)COc1ccc([N+](=O)[O-])cc1Cl (centres undefined)	0.4	-15	-21	-4.8	-18	2.9	i	0.67	7%
CN1CCN(C(=O)C[C@@H]2C[C@H]3c4cc(NC(=O)Nc5ccc(F)cc5)ccc4O[C@H]3[C@H](CO)O2)CC1	nt	3	1	-4.4	nt	4.4	i	nt	nt
COc1ccc(-c2nc(CSCC(=O)N3CCc4ccccc4C3)c(C)o2)cc1OC	3.5	-4	-9	2.9	98*	-3.4	i	0.77	9%
Cc1noc(C)c1NC(=O)Nc1ccc2c(c1)C(=O)N([C@@H](C)CO)C[C@@H](C)[C@H](CN(C)CC1CCCCC1)O2	nt	1	2	-2.0	nt	-1.7	i	nt	nt
O=C(O)C1=C[C@H](c2csc3ccccc23)C[C@H](OCCCCO)O1	0.7	1	-1	-7.0	8	-1.0&-0.4	i	nt	nt
Cc1cnc(C(=O)NC(C)CCc2ccccc2)cn1 (centres undefined)	-4.0	1	1	-2.0	3	0.3	i	0.67	1%
Cc1cc2oc(C(=O)N(Cc3ccccc3)c3ccccn3)cc(=O)c2cc1Cl	4.7	7	8	-0.9	-13	3.6	i	0.64	0%
C=CCN1C(=O)CN=C1Nc1cc(C)ccc1C	0.0	nt	nt	nt	-4	nt	nt	0.72	6%
COc1ccc(NC(=O)N(C)C[C@@H]2Oc3ccc(NS(=O)(=O)c4ccccc4)cc3C(=O)N([C@H](C)CO)C[C@@H]2C)cc1	nt	-4	1	-0.5	nt	-2.2	i	nt	nt

Source: PubChem BioAssay

Not all compounds are listed; count on the stated rates, not on these rows.
